High-throughput results as filed in PubChem.
Sa ugtP lethal: growth inhibition of ugtP-null S. aureus, primary screen, RN4220 ugtP deletion, OD600; 16 h; some inactives read as strong as hits; growth inhibition, % (no concentration beside the values); 0.54% of 330,000 active; AID 1259309, 2017;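 active means z-score under -3 and OD600 up to 0.15 on both plates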;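 further: plate controls were untreated wells for no effect and antibiotic for full effect; wells of about 80 µL received 100 nL stock; the first replicate is given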
PrP 5UTR inh: inhibition of PrP 5' UTR reporter expression; cell-based PrP 5' UTR mRNA reporter, plate reader; inhibition, % (no concentration beside the values); 0.35% of 340,000 active; AID 488862, 2010;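 active means every replicate at 50% or more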;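 further: 0 = median of the neutral control wells; tested in H4 reporter cells; numbers are from one replicate; inactives centre near -14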
Bead autofluor: flagged as autofluorescent in microsphere protease counterscreen; compound autofluorescence counterscreen, microsphere flow cytometry; hits give high values; fluorescence intensity (no concentration beside the values); 3.1% of 360,000 active; AID 624483;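 active means at least 3 SD above the mean of all compounds, about 16000 in these data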;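 further: 100 nL of 1 mM stock went into each well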
BJeLR viability: MLPCN primary cell-based screen for lethality selective to Ras in HRASV12 cells; BJeLR (HRASV12) viability, CellTiter-Glo ATP luminescence, 48 h; reference of the scale not given here; inhibition, % (test concentration not listed); 0.17% of 300,000 active; AID 1554, 2009;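 active means replicate mean above 50%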;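 further: 50 nL library stock added to about 25 µL; numbers are from one replicate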
Sa RN4220 lethal: growth inhibition of S. aureus RN4220, primary screen, OD600; 16 h; inhibition, % (concentration not given with the values); 0.33% of 330,000 active;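 active means z-score of -3 or lower and OD600 up to 0.18 on both plates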;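 further: plate controls were untreated cells for no effect and reference antibiotic for full effect; stock transfer was 100 nL into about 80 µL; one replicate is shown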
Mtb hypoxia inh: PubChem AID 1159583; M. tuberculosis hypoxia-regulated fluorescent reporter, fluorescence; fluorescence inhibition, % (concentration not given with the values); 0.1% of 300,000 active;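 active means 35 to 45% if threefold the growth effect, above 45% if 1.5-fold the growth effect; inactive means the rest, general growth blockers included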;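 further: wells of about 50 µL received 100 nL stock; 0% = vehicle wells and 100% = reference inhibitor wells; whole bacteria with a GFP reporter of the hypoxia response; strong numbers were not always called active; many hits fall short of the cut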
Mtb hypoxia inh growth: further read-out of Mtb hypoxia inh, marked with its call; growth inhibition, %; measured here: M. tuberculosis growth (absorbance);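 0% = vehicle and 100% = reference antibiotic; read after six days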
* hit, by the source's call; · = not tested or not shown.

SMILES | Sa ugtP lethal | PrP 5UTR inh | Bead autofluor | BJeLR viability | Sa RN4220 lethal | Mtb hypoxia inh | Mtb hypoxia inh growth
O=C(NCc1ccccc1)C(c1cccnc1)N(C(=O)c1ccccn1)c1ccccc1F (stereo not given) | 10 | -19 | 3757 | -4 | 1.8 | 4 | 4
CCc1c(C(=O)N2CCOCC2)csc1C | 1 | -49 | 10757 | 10 | 2.2 | -6 | 7
COc1ccc(Nc2nc3ccccc3n2C)cc1 | 13 | -67 | 4160 | 2 | 6.4 | 4 | 1
Cc1cccc(N2C(=O)NC(=O)/C(=C/c3ccc(N4CCOCC4)cc3)C2=O)c1 | -70 | -8 | 3347 | -7 | -0.8 | 10 | 4
O=C(O)C1Cc2ccccc2CN1S(=O)(=O)/C=C/c1ccccc1 (stereo not given) | -6 | -3 | 4401 | 4 | 4.1 | -6 | 5
CCCOc1ccc(-c2nc(C#N)c(N3CCC(C(N)=O)CC3)o2)cc1 | -1 | -14 | 19961* | -5 | 3.9 | 0 | 8
COc1ccccc1-c1cc2nc(C)c(CCC(=O)NC(C)CCc3ccco3)c(C)n2n1 (stereo not given) | 10 | -2 | 5993 | -3 | -0.3 | -6 | 6
C/C(CC(=O)Nc1ccc(N(C)C)cc1)=N\NC(=O)c1ccncc1 | · | -33 | 4188 | 1 | · | · | ·
COc1cccc(CCNCc2ccc(SC)cc2)c1 | 2 | -2 | 8944 | -4 | -2.2 | 5 | -4
CCOC(=O)C1CCN(C(=O)COc2ccc([N+](=O)[O-])cc2)CC1 | 4 | -18 | 2533 | 0 | 2.2 | 11 | 9
CCN(CC)C(=S)SC1=CCS(=O)(=O)C1 | 4 | -18 | 4066 | 0 | 5.4 | -3 | -3
CC(=O)Nc1nnc(CSCc2ccccc2F)s1 | 3 | -18 | 3853 | -6 | 1.2 | 8 | 5
c1ccc2[nH]c(CSc3nc4ccccc4o3)nc2c1 | -4 | -33 | 10302 | 4 | -2.3 | 10 | -2
COc1ccccc1N1CC(C(=O)OCC(=O)Nc2cc(C)on2)CC1=O (stereo not given) | 8 | -15 | 6414 | · | 2.8 | 8 | 1
NC(=O)c1nsc(C(=O)N(c2cccc(F)c2)C(C(=O)NCC2CCCO2)c2ccc3ncccc3c2)c1N (stereo not given) | 3 | -5 | 3615 | -4 | -0.5 | 7 | 10
Cc1noc(C)c1S(=O)(=O)N(C)C[C@H]1Oc2c(NC(=O)Nc3ccccc3)cccc2C(=O)N([C@H](C)CO)C[C@@H]1C | -7 | -16 | 4300 | · | -10 | 2 | 14
CN(C)CC1CSCCC1(O)c1ccc(C(F)(F)F)cc1 (stereo not given) | 3 | -27 | 7503 | 0 | -9.3 | -5 | 5
O=C(Nc1ccc(S(=O)(=O)NC2=NCCCCC2)cc1)c1ccc(Cl)c([N+](=O)[O-])c1 | 1 | -5 | 3582 | · | 0.0 | 8 | 10
O=C(N/N=C/C(Br)=C\c1ccccc1)c1n[nH]c2c1CCC2 | · | -51 | 25111* | 38 | · | · | ·
COc1ccc(CN(CC(=O)NCc2ccc(F)cc2)C(=O)CCC(=O)Nc2cc(C)ccn2)cc1 | 3 | -19 | 3665 | -2 | 2.1 | -1 | 1
CCCCn1ccnc1C(=O)c1cc(S(=O)(=O)N2CCOCC2)ccc1C | -2 | -30 | 10201 | 20 | 3.8 | 4 | 5
CCOC(=O)c1ccc(NC(=S)NCCc2ccc(OC)c(OC)c2)cc1 | -7 | -17 | 3198 | 1 | 1.8 | 10 | 14
Cc1ccccc1/C=N/n1c(C2CCCCC2)n[nH]c1=S | · | -19 | 4030 | 4 | · | · | ·
COc1cccc(OC)c1NC(=O)Cc1nn(C)c(=O)c2ccccc12 | 5 | 2 | 3774 | -4 | 2.1 | 3 | 4
CCN1C(=O)C2C(c3ccc(C)cc3)N3C(=O)N(c4ccc(OC)cc4)C(=O)[C@@]3(C)C2C1=O (stereo not given in full) | 2 | · | · | · | 6.6 | 4 | 6
Later entries.
SMILES | Sa ugtP lethal | PrP 5UTR inh | Bead autofluor | BJeLR viability | Sa RN4220 lethal | Mtb hypoxia inh | Mtb hypoxia inh growth
Cc1c(CNCc2cccs2)c(C(=O)O)c(C)n1Cc1ccccc1 | -15 | -29 | 3249 | 4 | -10 | 2 | 7
COc1cccc(CNC(=O)c2ccc(NC3=NC4CS(=O)(=O)CC4S3)cc2)c1 (stereo not given) | 0 | -7 | 5533 | -7 | 1.9 | -2 | 3
COc1ccc(C=NNC(=O)c2ccccc2Br)cc1COc1c(F)c(F)cc(F)c1F | 22 | · | · | · | 0.8 | -3 | -11
Nc1ccccc1NC(=O)CCn1c(=S)[nH]c2ccccc2c1=O | 12 | -13 | 4070 | 4 | 4.1 | 5 | -7
CC1CN(C(C)CO)C(=O)Cc2cc(NC(=O)C3CCCCC3)ccc2OC1CN(C)S(=O)(=O)c1ccccc1 (stereo not given) | 3 | · | · | · | 2.1 | 2 | 12
O=C(CN(Cc1ccccc1Cl)C(=O)c1csnn1)NCCc1ccccc1 | 15 | -24 | 3787 | -7 | 1.9 | 15 | 8
NC(=O)c1ccc[n+](CC(=O)OCCC23CC4CC(CC(C4)C2)C3)c1 | -4 | -21 | 4511 | -2 | 4.4 | -92 | -20
COc1ccccc1-c1nc(SCC(=O)NCC2CCCO2)c2c(=O)n(C)c(=O)n(C)c2n1 (stereo not given) | 8 | · | · | 11 | 12 | -5 | 5
COc1ccccc1-c1nn2c(-c3ccco3)nnc2s1 | -12 | -152 | 21284* | 8 | 4.4 | -6 | -19
CCC1(CC)C(=O)NN(c2ccccc2)C1=O | 1 | -10 | 3159 | -7 | 5.9 | 5 | 4
COCCOC(=O)C1=C(C)NC(=O)NC1c1ccc(-c2cc(Cl)ccc2Cl)o1 (stereo not given) | -7 | -14 | 5363 | -4 | 13 | 3 | 4
O=[N+]([O-])c1ccc(CNc2cccc(Cl)c2)s1 | -8 | -11 | 3333 | 0 | 7.7 | 9 | 0
CC(C)Sc1ccccc1C(=O)Nc1ccc2c(c1)n(C)c(=O)n2C | 8 | -11 | 3554 | 13 | -3.7 | 17 | 8
O=C(O)C(c1ccccc1)C(O)c1ccc2c(c1)OCO2 (stereo not given) | 7 | -16 | 3823 | · | 6.6 | 13 | 9
CN1CCN(C(=S)c2ccc([N+](=O)[O-])cc2)CC1 | -2 | -21 | 2460 | -5 | 3.0 | 8 | 5
CC1(c2ccc3c(c2)OCO3)NC(=O)N(CC(=O)NCCC2=CCCCC2)C1=O (stereo not given) | 2 | -3 | 3849 | 3 | 4.7 | 10 | 4
CCn1cc(C(=O)O)c(=O)c2cc(OC)ccc21 | 4 | -22 | 19754* | 0 | 11 | 0 | 5
CCOC(=O)CN(C(=O)CNC(=O)c1ccco1)C(C(=O)NC1CCCCC1)c1cccs1 (stereo not given) | 10 | -9 | 2950 | 1 | 6.9 | 12 | 8
O=c1cc(-c2ccccc2Cl)oc2c(Br)ccc(O)c12 | 10 | -22 | 3809 | 8 | 16 | 4 | -5
O=C(NN=Cc1ccc2c(c1)OCO2)c1ccncc1 | -2 | -16 | 3938 | · | 0.3 | · | ·
CCCS(=O)(=O)c1c(S(=O)(=O)CCC)c2ccc(C(N)=O)cn2c1C(=O)c1ccc(OC)cc1 | -3 | -32 | 4582 | 1 | 2.0 | -1 | 8
O=C(Nc1ccc(Cl)cc1)C1=Cc2ccccc2OC1 | · | -110 | 2965 | 8 | · | · | ·
O=C(CCSc1nnc(-c2ccncc2)o1)Nc1ccc(Cl)cc1 | 0 | -13 | 4390 | -2 | 3.7 | 5 | 13
COc1ccc(-c2nc(=S)c3c(n2Cc2cccnc2)CC(C)(C)OC3)cc1 | 5 | -17 | 3608 | -1 | 0.2 | 7 | -12
N#Cc1ccc(-c2ccccc2)nc1SCC(=O)c1cccc(Cl)c1 | -5 | -24 | 5058 | 5 | -2.2 | 5 | 1

Five compounds from above, showing only Sa RN4220 lethal.
SMILES	Sa RN4220 lethal
O=C(O)C(c1ccccc1)C(O)c1ccc2c(c1)OCO2 (stereo not given)	6.6
O=C(CCSc1nnc(-c2ccncc2)o1)Nc1ccc(Cl)cc1	3.7
Nc1ccccc1NC(=O)CCn1c(=S)[nH]c2ccccc2c1=O	4.1
CCOC(=O)CN(C(=O)CNC(=O)c1ccco1)C(C(=O)NC1CCCCC1)c1cccs1 (stereo not given)	6.9
COCCOC(=O)C1=C(C)NC(=O)NC1c1ccc(-c2cc(Cl)ccc2Cl)o1 (stereo not given)	13

(next part)
SMILES | Sa ugtP lethal | PrP 5UTR inh | Bead autofluor | BJeLR viability | Sa RN4220 lethal | Mtb hypoxia inh | Mtb hypoxia inh growth
CN(C)CCNC(=O)c1ccc(COc2ccc(Cl)cc2Cl)cc1 | -1 | -18 | 9623 | 9 | -5.6 | 9 | 15
CCCNC(=O)c1ccc2c(=O)c(O)c(-c3cccc(Br)c3)[nH]c2c1 | 3 | 56* | 3810 | 5 | 8.2 | 5 | 2
CCN(CCCNC(=O)C1CCC(=O)N1Cc1ccc(F)cc1)c1cccc(C)c1 (stereo not given) | -9 | -5 | 3194 | -1 | -11 | 11 | 6
Fc1ccc(Nc2ccc3ccccc3n2)c(F)c1 | 4 | -37 | 4563 | · | 6.9 | 10 | 7
CCn1c(SCC(=O)C(C)(C)C)nnc1-c1cccnc1 | 4 | -11 | 9299 | -3 | 0.1 | -5 | 3
NS(=O)(=O)c1ccc(CCNC(=O)CSc2ncnc3ccccc23)cc1 | 4 | -18 | 4459 | 1 | -0.2 | 18 | 7
COc1cccc(NC(=O)c2ccc(CN3CCN(c4ccccc4)CC3)cc2)c1 | 7 | -22 | 9134 | 15 | 3.4 | 12 | 3
Cc1ccc2c(c1)C1CN(C)CCC1N2C(=O)c1cccc(S(=O)(=O)N(C)C)c1 (stereo not given) | -1 | -17 | 4590 | 4 | 1.1 | 3 | 0
CCN(CC)CCn1c(-c2ccc(C)cc2)nc(=S)c2c1CC(C)(C)OC2 | 0 | -14 | 5392 | -1 | 1.3 | 17 | 9
O=C(/C=C/c1ccc(N2CCCCC2)c([N+](=O)[O-])c1)c1ccc(O)cc1 | 38 | -77 | 4570 | -6 | 19 | 3 | 4
CCCc1cc(=O)oc2cc(C)cc(OC(C)C(=O)NCC3CCC(C(=O)O)CC3)c12 (stereo not given) | -3 | -1 | 5247 | -4 | -0.5 | · | ·
Cc1ccc(C(=O)OCC(=O)NCCNC(=O)COC(=O)c2ccc(C)o2)o1 | 7 | -11 | 4471 | 13 | 2.7 | 4 | -9
CCOc1ccccc1C(=O)Nc1ccc(S(=O)(=O)N2CCN(C)CC2)cc1 | 4 | -8 | 4719 | 1 | 2.1 | -2 | 13
CCN(CC)c1ccc(N)cc1S(=O)(=O)Nc1ccc(OC)cc1 | 5 | -18 | 3884 | -1 | 4.3 | 15 | 8
COc1cccc(C=Cc2ccc3ccccc3n2)c1OC(C)=O | 12 | · | · | · | -1.8 | 14 | 8
Cc1cc(OCC(=O)OC(C)C)c2c3c(c(=O)oc2c1)CCCC3 | 2 | -11 | 3304 | 9 | 1.4 | 5 | 13
COc1c(F)c(F)c(C(=O)O)c(Nc2ccc(C)cc2)c1F | -7 | -19 | 22057* | 1 | 4.1 | 5 | 6
O=C(Cn1cc(S(=O)(=O)N2CCCC2)c(S(=O)(=O)N2CCCC2)c1)NCc1ccco1 | 6 | -3 | 4064 | -3 | 3.0 | 14 | 3
CC1=CC(=C2C=CC(=O)C=C2)C=C(C)N1C | 0 | · | · | 18 | 2.5 | -3 | -19
Cc1ccc(S(=O)(=O)N2CCN(C(=S)NCc3ccc4c(c3)OCO4)CC2)cc1 | 2 | -11 | 5017 | -1 | -4.3 | -7 | 13
COc1ccc(C)c(Cn2c(-c3nonc3N)nc3ccccc32)c1 | 10 | · | 8558 | 17 | -0.8 | 5 | 1
COc1ccc(CCNC(=O)CCc2ccc(S(=O)(=O)NC(C)C)cc2)cc1 | -5 | -41 | 8053 | 4 | 3.0 | 4 | 5
CCCCOc1cccc(C(=O)Nc2ccc(N3CCN(CC)CC3)cc2)c1 | 7 | -19 | 3744 | 3 | -0.3 | · | ·

Complete entries, quoted from the list.
Cc1cc(OCC(=O)OC(C)C)c2c3c(c(=O)oc2c1)CCCC3 in the list: Sa ugtP lethal: 2; PrP 5UTR inh: -11; Bead autofluor: 3304; BJeLR viability: 9; Sa RN4220 lethal: 1.4; Mtb hypoxia inh: 5; Mtb hypoxia inh growth: 13
CCN(CC)CCn1c(-c2ccc(C)cc2)nc(=S)c2c1CC(C)(C)OC2 in the list: Sa ugtP lethal: 0; PrP 5UTR inh: -14; Bead autofluor: 5392; BJeLR viability: -1; Sa RN4220 lethal: 1.3; Mtb hypoxia inh: 17; Mtb hypoxia inh growth: 9
